# Source: PubChem BioAssay (Southern Research Specialized Biocontainment Screening Center)
# Mtb betalactam: beta-lactam sensitization of Mtb H37Rv; M. tuberculosis H37Rv growth with meropenem, percent inhibition; hits of this screen are not shown here; inhibition, % at 25 µM; actives 0.27% (n = 330,000);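 active = about 74% or more and at least 40 points above the plate without the antibiotic, then above 30% in a dose series; inconclusive = first-round hits that could not be retested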;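 also: growth measured after seven days incubation then overnight dye step; 0% = bacteria only wells and 100% = bacteria with antibiotic; twin plates without the antibiotic show which effects depend on it; some results filed as inactive read as strong as hits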
# * = called active by the depositor; ? = inconclusive. Not all compounds are listed; the hit share may differ from the screen's.
SMILES,Mtb betalactam
COc1ccccc1-c1sc2cc3c(cc2c1C#Cc1ccccn1)OCO3,12
O=c1c2c(O)cc(O)cc2oc2ccc(O)c(O[C@@H]3O[C@H](CO)[C@@H](O)[C@H](O)[C@H]3O[C@H]3O[C@H](CO)[C@@H](O)[C@H](O)[C@H]3O)c12,-3
O=C(CN1C(=O)NC(Cc2c[nH]c3ccccc23)C1=O)NC1CCCCC1 (stereo not drawn),-2
O=C(COC(=O)/C=C/c1cccc(C(F)(F)F)c1)NC(=O)NCc1ccco1,-7
CCC(C(=O)OCC(=O)Nc1ccc(F)cc1)c1ccccc1 (stereo not drawn),0
C=CC[C@@H](CC(=O)N(CCO)Cc1ccccc1)C(=O)N[C@H](COC(=O)[C@@H](CC=C)Cc1ccc(F)cc1)Cc1c[nH]c2ccccc12,-8
COc1cc(C#Cc2c(C=O)n(C)c3ccccc23)cc(OC)c1,3
COC(=O)c1cc(/C=C/c2ccccc2)[nH]n1,2
O=C(COC(=O)c1cc(=O)[nH]c2ccccc12)NCc1ccc(Cl)cc1,-5
O=C(Cc1cccc([N+](=O)[O-])c1)Nc1cccc(C(=O)N2CCOCC2)c1,6
FC(F)Oc1ccc(C2=Nn3c(nnc3-c3ccccc3Cl)SC2)cc1OCC1CC1,1
Cc1cc(=O)oc2cc(OCC(=O)Nc3cccnc3)ccc12,-3

# Part of the list above in a different format:
canonical_smiles | Mtb betalactam
CCC(C(=O)OCC(=O)Nc1ccc(F)cc1)c1ccccc1 (stereo not drawn) | 0
C=CC[C@@H](CC(=O)N(CCO)Cc1ccccc1)C(=O)N[C@H](COC(=O)[C@@H](CC=C)Cc1ccc(F)cc1)Cc1c[nH]c2ccccc12 | -8
COc1cc(C#Cc2c(C=O)n(C)c3ccccc23)cc(OC)c1 | 3
COC(=O)c1cc(/C=C/c2ccccc2)[nH]n1 | 2
O=C(COC(=O)c1cc(=O)[nH]c2ccccc12)NCc1ccc(Cl)cc1 | -5
O=C(Cc1cccc([N+](=O)[O-])c1)Nc1cccc(C(=O)N2CCOCC2)c1 | 6
FC(F)Oc1ccc(C2=Nn3c(nnc3-c3ccccc3Cl)SC2)cc1OCC1CC1 | 1

# New compounds follow.
SMILES,Mtb betalactam
O=C(O)C1=CC[C@@H](c2ccc(Cl)cc2)N(S(=O)(=O)c2ccc(Cl)cc2)[C@H]1c1ccccc1,5
COc1ccc(CC(=O)Nc2cc(S(=O)(=O)N3CCOCC3)ccc2N2CCCC2)cc1OC,2
CN(CC(=O)Nc1ccccc1Cl)C(=O)CSc1nnc(-c2ccco2)n1C,4
CC(C)[C@H](N)c1cn([C@@H](CO)C(=O)N2CCNCC2)nn1,-4
C#CCOCCOCCOCCNc1nc(N2CCN(C(=O)[C@H](CCC(=O)O)n3cc(CN)nn3)CC2)nc(N2CCN(C(=O)[C@H](CCCCN)n3cc([C@@H](N)CC(N)=O)nn3)CC2)n1,-2
Cc1cc(OCC(=O)OCC(=O)NC2CCCC2)ccc1Cl,-11
C/C(=N\NC(=O)c1ccco1)c1ccc(-c2ccccc2)cc1,6
COc1ccc(Br)c(C(=O)OCC(=O)NC(=O)NC2CCCC2)c1,82
O=C(COC(=O)c1cc(Br)ccc1O)c1ccc(F)cc1,7
CCN1CCN=C1Nc1ccccc1,-3
Cc1cc(C(=O)NC2CCCCCC2)c2ccccc2n1,0
CC1CN(C(=O)c2ccccc2NS(=O)(=O)c2ccc(Cl)cc2)CC(C)O1 (stereo not drawn),-2

# Reprinted at random: 2 compounds from above, in no set order.
SMILES,Mtb betalactam
Cc1cc(C(=O)NC2CCCCCC2)c2ccccc2n1,0
O=C(Cc1cccc([N+](=O)[O-])c1)Nc1cccc(C(=O)N2CCOCC2)c1,6

# Next results.
SMILES,Mtb betalactam
CC(NC(=O)COC(=O)c1nc(Cl)ccc1Cl)c1ccccc1 (stereo not drawn),-6
CCN(C(=O)COC(=O)c1cc(Cl)ccc1OC)c1c(N)n(Cc2ccccc2)c(=O)[nH]c1=O,2
COc1ccc(CCNC(=O)COC(=O)/C=C/c2cc(OC)ccc2OC)cc1,-1
COc1ccc(C(=O)Nc2nc(C)c(C(C)=O)s2)cc1S(=O)(=O)N1CCOCC1,-2
O=C1C=C(c2cccc(Cl)c2O)C[C@@H](c2ccc(F)cc2)C1,6
CCn1c(=O)c(C(=O)NNC(=O)c2ccccc2F)c(O)c2ccccc21,1
CCN(C(=O)COc1ccc2ccc(=O)oc2c1)C1CCCCC1,3
COc1ccc(Cl)cc1C(=O)NNC(=O)CNC(=O)c1ccco1,-6
CCC1(c2ccc(F)cc2)NC(=O)N(CC(=O)N2c3ccccc3CC2C)C1=O (stereo not drawn),-2
O=C1C=C(c2ccc3c(c2)OCO3)C[C@@H](c2ccc(F)cc2)C1,-1
Cc1cc(C(=O)NNC(=S)NC2CCCCC2)cs1,-5
CC(C)Cc1nnc(NC(=O)C2CC(=O)N(c3ccc4c(c3)OCCO4)C2)s1 (stereo not drawn),-3
CC(=O)Nc1ccc(S[C@@H](CCN2CC[C@H](C(C)(C)C)CCC2=O)c2ccccc2)cc1,-3
Cc1ccc(C(=O)OCC(=O)NC(C)c2ccccc2)cc1C (stereo not drawn),-6
CCCc1nnc(NC(=O)C2CCN(C(=O)C3CC(=O)N(c4ccc(C)cc4)C3)CC2)s1 (stereo not drawn),0
CCCCn1c(N)c(N(CC(C)C)C(=O)c2ccc(C)o2)c(=O)[nH]c1=O,2
C=CCC(NC(=O)c1ccc(C#N)cc1)C(=O)NCCC (stereo not drawn),5
Clc1ccc(C(Cn2ccnc2)OCc2csc3c(Cl)cccc23)c(Cl)c1 (stereo not drawn),95
O=CN1CCN(C(=O)c2cc3cc(Cl)ccc3[nH]2)CC1,-8
CC(=O)C[C@@H](O)CC(=O)[C@@H]1OC(=O)CCCCCc2ccccc21,6
N#Cc1ccccc1OCC(=O)Nc1ccc(N2CCOCC2)cc1N1CCOCC1,-8
CCOC(=O)C1=C(COC(=O)Cc2ccc(Br)cc2)NC(=O)NC1C (stereo not drawn),-7
OCC[C@H]1C[C@@H](O)[C@H](O)[C@@]2(CCCc3ccccc3O2)O1,-8
COc1ccc(NC(=O)C2=NN(c3ccccc3)C(=O)CC2)cn1,-10
O=C(NCc1ccco1)c1cccc2c1C(=O)c1ccc(/C=C/c3ccccc3)cc1S2(=O)=O,6
CC(=O)OC[C@H]1O[C@@H](O[C@H]2C[C@]3(C)C(C[C@@H](O)C4C([C@]5(C)CC[C@@H](C(C)(C)O)O5)CC[C@]43C)[C@@]3(C)CC[C@H](O)C(C)(C)C23)[C@H](O[C@@H]2O[C@@H](C)[C@H](O)[C@@H](O)[C@H]2O)[C@@H](O)[C@@H]1O (stereo partly drawn),3
COc1cc(/C=C/C(=O)OCC(=O)NC(=O)NCc2ccco2)ccc1OC(F)F,3
C[C@H](CO)N1C[C@H](C)[C@@H](CN(C)S(=O)(=O)c2ccc(F)cc2)Oc2ccc(NC(=O)C3CC3)cc2C1=O,3
COC(=O)c1cc(COC(=O)CNC(=O)c2ccc(Br)cc2)oc1C,-1
CC(=O)Nc1cccc(NC(=O)COc2ccc3c(c2)OCO3)c1,-17
CN(C)c1ccc(/C=N/NC(=O)c2ccc(-n3cnnn3)cc2)cc1,12
Cc1nc(NN)nc(NCc2ccccc2)n1,-8
NC(=O)c1nn(CC(=O)Nc2cccc(S(=O)(=O)N3CCCC3)c2)c(=O)c2ccccc12,-6
COc1ccccc1NC(=O)C(C)Sc1nc(-c2ccccc2)cn1N (stereo not drawn),-2
Cc1ccc(C2=NN(C(=O)CSc3nnnn3C)C(c3ccco3)C2)cc1 (stereo not drawn),-6
COC(=O)C1=C(c2ccc(F)cc2OCc2ccccc2)C[C@@H]2CC[C@H]1N2C(=O)N1CCC(O)CC1,-2
CC[C@@H]1C=C(C(=O)O)[C@H](c2cccc(C)c2)N1S(=O)(=O)c1ccc(C)cc1,4
COc1ccc(S(=O)(=O)Nc2cccc3c2O[C@H](CN(C)Cc2ccncc2)[C@@H](C)CN([C@H](C)CO)C3=O)cc1,-4
O=C(CSc1cccc(C(F)(F)F)c1)Nc1ccc(N2CCOCC2)cc1,-5
COc1ccccc1-n1cnnc1SCC(=O)NC1CCCC1,-10
Cc1ccc(CN2Cc3cccc4c3[C@@H](CC2=O)[C@H](O)[C@H](O)C4)cc1,-2
Cc1cc(NC(=O)CSCC(=O)Nc2ccc(C)c(C)c2)no1,-4
Cc1ccc(N(C(=O)c2ccccn2)C(C(=O)NC2CCCCC2)c2ccncc2)cc1 (stereo not drawn),-2
CO[C@H]1CC=C2CCN3CCC4=C(CC(=O)OC4)[C@]23C1,-10
O=C(O)[C@@H]1CCCN1S(=O)(=O)c1cccc2cccnc12,-6
Cc1cccc(N2CC(C(=O)NC3CCCCCC3)CC2=O)c1C (stereo not drawn),-12
CSc1ccc(/C=C/C(=O)OCC(=O)N2CCc3ccccc32)cc1,1
O=C(NCCOc1ccccc1F)c1ccc2c(=O)n3c(nc2c1)CCC3,-5
O=C(CN1c2cccc3cccc(c23)S1(=O)=O)NCc1ccc(F)cc1,-3
CCOc1ccc(Cl)cc1C1=CC(=O)C[C@H](c2ccc(OC)cc2)C1,90
O=C(OCCOc1ccccc1)c1n[nH]c2ccccc12,2
O=C1C[C@@H]2c3c(cccc3CN1Cc1ccc(F)cc1)C[C@@H](O)[C@H]2O,0
Cc1ccc(C(=O)COC(=O)c2cccc([N+](=O)[O-])c2)s1,?
O=C(Cc1ccc(Br)cc1)Nc1ccc(S(=O)(=O)N2CCCC2)cc1,?
CC(C)(C)OC(=O)C[C@@H]1C/C=C\C[C@@H](CC(=O)N(CCO)Cc2ccccc2)C(=O)NC[C@@H](c2ccccc2)OC1=O,4
CCOc1cc(N2CCOCC2)c(OCC)cc1NC(=O)c1nn(CC)c(=O)c2ccccc12,9
COc1ccccc1C(=O)NC(CCSC)C(=O)NNC(=O)c1ccccc1O (stereo not drawn),1
O=C(O)c1ccccc1C(=O)O,1
COc1cc(/C=C2\SC(=S)N(CCC(=O)NC3CCCC3)C2=O)cc(OC)c1OC,1
CC(C)C(NC(=O)c1ccc(C(C)(C)C)cc1)C(=O)Nc1ccc(N2CCOCC2)cc1 (stereo not drawn),-1

# The final seven entries of the part before lead into the next:
SMILES,Mtb betalactam
O=C(Cc1ccc(Br)cc1)Nc1ccc(S(=O)(=O)N2CCCC2)cc1,?
CC(C)(C)OC(=O)C[C@@H]1C/C=C\C[C@@H](CC(=O)N(CCO)Cc2ccccc2)C(=O)NC[C@@H](c2ccccc2)OC1=O,4
CCOc1cc(N2CCOCC2)c(OCC)cc1NC(=O)c1nn(CC)c(=O)c2ccccc12,9
COc1ccccc1C(=O)NC(CCSC)C(=O)NNC(=O)c1ccccc1O (stereo not drawn),1
O=C(O)c1ccccc1C(=O)O,1
COc1cc(/C=C2\SC(=S)N(CCC(=O)NC3CCCC3)C2=O)cc(OC)c1OC,1
CC(C)C(NC(=O)c1ccc(C(C)(C)C)cc1)C(=O)Nc1ccc(N2CCOCC2)cc1 (stereo not drawn),-1
COc1cccc(NC(=O)CN(C)C(=O)c2c(-c3ccccc3)noc2C)c1,-7
CC(=O)c1ccc(NC(=O)c2cc3ccccc3o2)cc1,5
O=C(CSc1nnnn1-c1cccc(F)c1)NC1CC1,-6
O=C(COc1cccnc1[N+](=O)[O-])Nc1c(Cl)cccc1Cl,-5
CCCCc1cc2ccccc2c(OCCN(C)C)n1,2
COC(=O)C1=C(c2ccc(OC)c(OC)c2)C[C@@H]2CC[C@H]1N2C(=O)NC1CC1,4
O=C(O)/C(=C\c1ccc(Cl)c([N+](=O)[O-])c1)c1ccc(S(=O)(=O)N2CCCC2)s1,-9
Cc1cc(C(=O)NCC(=O)Nc2ccc(F)c(F)c2)c(C)o1,-1
O=C(COC(=O)CNC(=O)c1ccccc1)NCCCc1ccccc1,3
CCN1C(=O)NC(c2ccccc2)C1=O (stereo not drawn),-8
CC(C)CC1NC(=O)N(CC(=O)Nc2cc([N+](=O)[O-])ccc2F)C1=O (stereo not drawn),-6
COCc1c(C(=O)OCc2nnc(-c3ccc([N+](=O)[O-])cc3)o2)oc2ccccc12,7
O=C(CN1CCCCC1)NCC(=O)Nc1ccc(F)c(F)c1F,1
CCCn1c(N)c(C(=O)COC(=O)/C=C/c2ccc(OC(F)F)c(OC)c2)c(=O)[nH]c1=O,-1
C#CCOCCOCCOCCNc1nc(N2CCOCC2)nc(N2CCN(C(=O)CCCCCCCCCCNC(=O)[C@H]([C@@H](C)CC)n3cc(CCCCN=C(N)N)nn3)CC2)n1,100
O=C(NC1CCCC1)C(c1ccc(Cl)cc1)N(C(=O)c1csnn1)C1CC1 (stereo not drawn),-4
O=C(COC(=O)c1cc2ccccc2cc1O)NCc1ccccc1,58
COc1ccc(-c2nnc(SCC(=O)N(C)C3CCS(=O)(=O)C3)n2C(C)C)cc1 (stereo not drawn),-13
COc1ccc(C(=O)Nc2ccc(S(=O)(=O)Nc3cnc4ccccc4n3)cc2)cc1,0
CCn1nnc2cc(C(=O)N(CCOC)CC(=O)Nc3cccc(C)c3C)ccc21,-4
COc1ccc(/C=N/NS(=O)(=O)c2ccc(F)cc2)cc1CN1CCSCC1,?
O=C(NCCc1ccc(C(F)(F)F)cc1)c1ccc2c(c1)OCO2,-4
COc1ccc2c(C)cc(SCC(=O)NCC3CCCO3)nc2c1 (stereo not drawn),3
Cn1cccc1C(=O)OCC(=O)NCCc1ccc(S(N)(=O)=O)cc1,3

# An excerpt from above in order of length of the SMILES, highest first.
SMILES,Mtb betalactam
CCOc1ccc(Cl)cc1C1=CC(=O)C[C@H](c2ccc(OC)cc2)C1,90
N#Cc1ccccc1OCC(=O)Nc1ccc(N2CCOCC2)cc1N1CCOCC1,-8
CC(=O)c1ccc(NC(=O)c2cc3ccccc3o2)cc1,5

# Further records
SMILES,Mtb betalactam
Cc1cc(NC(=O)COc2ccccc2C)ccc1NC(=O)c1cccs1,-7
CC(=O)c1sc(NC(=O)CN2C(=O)C3CCCCC3C2=O)nc1-c1ccccc1 (stereo not drawn),-9
COc1cc(NC(=O)COC(=O)CC2CC3CCC2C3)cc(OC)c1 (stereo not drawn),-4
CN(C(=O)c1cccc(NC(=O)C2CCN(C(=O)OC(C)(C)C)CC2)c1)C1CCC1,6
COC(=O)[C@@]12CCCN1[C@H](c1ccc(-c3ccccc3)c(OC)c1)[C@H]1C(=O)N(C)C(=O)[C@H]12,-11
